High-throughput results (PubChem BioAssay)
Six1-Eya2 blk = Six1/Eya2 interaction inhibition; actives 0.56% (n = 360,000); AID 651725; Q15475+O00167; AlphaScreen GST-Six1/His-Eya2 binding, biochemical; active compounds read low; control for the full effect not named in the record; activity change, % (test concentration not listed); in the data active = activity change below about -65%; inconclusive = about -30% to -65%; inactive = above about -30%; note: % is set by controls: 0 for no effect and ±100 for the full control effect
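GST-Six1 + His-Eya2 (5X stock: 250/500 nM); Tris pH 8.0, 300 mM NaCl, 0.05% BSA, 0.02% Tween 20; GSH donor/Ni acceptor beads; 1 h 37 °C dark; AlphaScreen readout.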
D2 ag = activates the human D2 dopamine receptor | P14416 | DiscoveRx PathHunter D2 beta-arrestin, luminescence, 90 min; 100% = 57 uM dopamine signal | activation, % (test concentration not listed) | actives 0.084% (n = 360,000) | AID 624465; in the data active = activation above about 40%; inconclusive = about 15% to 40%; inactive = below about 15%; note: compound concentration not given in the record; the text of the record calls up to 30% inactive
Target sequence (P14416 whole entry, looked up): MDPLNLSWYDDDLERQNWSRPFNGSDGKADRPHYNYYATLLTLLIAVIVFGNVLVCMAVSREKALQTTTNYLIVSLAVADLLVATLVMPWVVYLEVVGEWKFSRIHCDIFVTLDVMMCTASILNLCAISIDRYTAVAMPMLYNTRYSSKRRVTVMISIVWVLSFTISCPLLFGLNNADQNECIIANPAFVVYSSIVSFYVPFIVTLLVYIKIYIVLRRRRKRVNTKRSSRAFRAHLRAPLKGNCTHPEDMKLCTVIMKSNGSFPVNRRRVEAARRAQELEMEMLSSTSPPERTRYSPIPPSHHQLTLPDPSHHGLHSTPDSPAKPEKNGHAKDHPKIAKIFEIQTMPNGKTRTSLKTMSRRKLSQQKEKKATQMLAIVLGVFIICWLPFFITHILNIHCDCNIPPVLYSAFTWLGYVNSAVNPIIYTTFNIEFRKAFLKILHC
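Agonist mode: compounds alone added to overnight-plated D2 PathHunter cells for 90 min at 37 C, with 57 uM final dopamine (EC100) defining full response. Beta-arrestin recruitment detected by chemiluminescent reagent, read after 1 h at ambient temperature.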
PINK1 expr mod = changes PINK1 expression; PINK1 immunofluorescence, high-content cytometry, 24 h; Potency, µM (series often up to 76.6 µM), without a hit: top-dose activation (PINK1 increase), most hits filed as activators; actives 0.2% (n = 410,000); AID 624263; active = well fitted activation curve with a large enough effect; inconclusive = small, poorly fitted or top-dose-only effect; inactive = flat fitted curve, though single readings scatter; cell line not stated here;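 note: potency is the fitted concentration of half-maximal effect; % of control where 0% means no effect; nearly all actives have a fitted effect of over 65% in size; a mitochondrial uncoupler was the plate control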
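Stable cell line treated 24 h with compounds at 5 concentrations (CCCP controls), then fixed and immunostained for PINK1 plus nuclear and cell stains; PINK1 immunofluorescence quantified by laser-scanning microplate cytometry.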
TRPML1 agonist = agonists of human TRPML1 channel. Q9GZU1. TRPML1-expressing cells, Ca2+ dye fluorescence, FDSS; host cell line not named in the record; reference of the full effect not given here. activation, % (test concentration not listed). actives 0.12% (n = 410,000); in the data active = activation above about 50%; inconclusive = about 30% to 50%; inactive = below about 30%; note: 0% is about no effect; the text of the record puts the active cut at 80%
Target sequence (Q9GZU1 whole entry, looked up): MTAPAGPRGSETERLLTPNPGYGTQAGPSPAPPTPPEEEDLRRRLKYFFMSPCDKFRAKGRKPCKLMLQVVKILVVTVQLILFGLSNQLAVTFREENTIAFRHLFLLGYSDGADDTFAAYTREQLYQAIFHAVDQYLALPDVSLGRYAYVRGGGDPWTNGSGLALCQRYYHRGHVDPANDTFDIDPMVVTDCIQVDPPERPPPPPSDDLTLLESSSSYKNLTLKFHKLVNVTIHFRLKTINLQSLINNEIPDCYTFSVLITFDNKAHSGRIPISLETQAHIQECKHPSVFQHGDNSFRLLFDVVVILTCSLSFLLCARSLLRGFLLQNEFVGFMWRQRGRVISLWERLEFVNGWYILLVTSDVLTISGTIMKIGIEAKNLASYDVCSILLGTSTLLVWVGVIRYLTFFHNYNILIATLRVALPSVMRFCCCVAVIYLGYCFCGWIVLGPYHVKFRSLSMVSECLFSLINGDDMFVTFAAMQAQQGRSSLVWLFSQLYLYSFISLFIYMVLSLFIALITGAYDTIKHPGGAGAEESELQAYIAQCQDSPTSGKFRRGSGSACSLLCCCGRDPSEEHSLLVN
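Calcium fluorescence on an FDSS kinetic reader gave the read-out. Tet-induced TRPML1-DL cells were plated overnight, dye-loaded (Ca8 with quencher, 45-90 min, room temperature, dark), then read 110 s after compound addition, and again 110 s after 4uM final 54-4 (EC80).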
D2 PAM = positive allosteric modulators of human D2 dopamine receptor. P14416. DiscoveRx D2 beta-arrestin cells, luminescence, 90 min; 100% = 57 uM dopamine signal. actives 0.23% (n = 360,000). potentiation, % (concentration not given with the values); active = potentiation of 50% or more; inconclusive = 30% to 50%; inactive = 30% or less;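 note: compound concentration not given in the record; tested on top of an EC20 dose of dopamine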
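PathHunter beta-arrestin assay in DiscoveRx D2 cells. Compounds were added with an EC20 of dopamine (50 nM final) for 90 min at 37 deg C. Luminescence was read 1 h after detection reagent, with 57 uM dopamine as the EC100 control.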
CtBP-E1A inh = blocks the CtBP interaction with E1A. actives 0.49% (n = 340,000). activity change, % (no concentration beside the values). AlphaScreen GST-E1A/His-CtBP binding, 1536-well; active compounds read low; control for the full effect not named in the record; in the data active means activity change below about -65%; inconclusive means about -30% to -65%; inactive means above about -30%; note: % is set by controls: 0 for no effect and ±100 for the full control effect
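GST-E1A and His-tagged CtBP (125 nM each as 5X stock) were preincubated with pin-transferred compound for 2 h at 37 °C in the dark, then glutathione donor and nickel acceptor beads were added for 1 h before AlphaScreen reading.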
* marks the source's active call; other numbers are inactive results; ? = inconclusive; / = no result given; & = joins results of further samples; [ ] = remark or other dose.

mol	TRPML1 agonist	CtBP-E1A inh	PINK1 expr mod	D2 PAM	Six1-Eya2 blk	D2 ag
CC1(C(=O)NS(=O)(=O)C2CC2)CCN(C(=O)c2cccc(Cl)c2)C1 (configuration not stated)	-0.3	7	0.2%	-7	13	-0.3
CCC(C)NC(=O)NCc1ccccc1F (configuration not stated)	-0.7	-4	-0.8%	-6	-3	-5.6
CCC(=O)NCCCc1nc2ccccc2n1Cc1ccccc1F	0.3	3	1.3%	-8	0	-0.5
COc1ccc(-c2cc(=O)oc3c(C)c(OC(C)C(=O)NCc4ccccn4)ccc23)cc1 (configuration not stated)	/	-1	2.9%	-21	1	5.7
Cc1nn(Cc2ccc(F)cc2)c(Cl)c1/C=N/NC(=O)c1ccccc1	-0.1	-7	5.2%	-5	0	0.7
CCNC(=O)Nc1ccc(S(=O)(=O)Nc2cnc(C)nc2C)cc1	0.1	1	-0.7%	-4	6	-5.5
CC(=O)[C@@]1(O)CC[C@H]2[C@@H]3CCC4=CC(=O)CC[C@]4(C)[C@H]3CC[C@@]21C	-0.3	5	2.4%	-2	4	9.9
Cc1cccc(NC(=S)N/N=C/c2cccn2Cc2ccc(F)cc2)c1	1.4	-9	29%	-2	-23	-4.2
COc1ccc(C(=O)NCC2CCCN2S(=O)(=O)c2cccs2)cc1 (configuration not stated)	0.0	-22	-1.0%	-5	12	4.3
CC1CCCN(S(=O)(=O)c2csc(C(N)=O)c2)C1 (configuration not stated)	-0.3	/	2.1%	-3	-4	2.5
COC(=O)CSc1snnc1-c1ccc(Cl)cc1Cl	1.0	7	-0.1%	-6	13	0.6
O=C(Nc1nnc([C@@H]2C[C@H](O)[C@@H](CO)O2)s1)c1cccc(OC(F)(F)F)c1	-0.1	2	4.1%	-2	3	-4.3

Other entries
mol	TRPML1 agonist	CtBP-E1A inh	PINK1 expr mod	D2 PAM	Six1-Eya2 blk	D2 ag
O=C1c2ccccc2C(=O)c2c1oc(C(F)(F)F)c2C(=O)c1ccccc1	-1.2	-14	-2.0%	?	-8	?
N#Cc1cc2ccccc2n2nnnc12	-0.3	-9	2.0%	3	11	-3.2
CC(C)(C)OC(=O)N1CCC(C(=O)NNC(=O)c2ccc(Cl)cc2Cl)CC1	-0.7	3	3.0%	-10	-1	-0.1
COc1ccc(OC)c(C2=NNC(=NCc3ccc4c(c3)OCO4)SC2)c1	0.4	-28	1.3%	-10	-21	2.0
CCOC(=O)c1ccc(NC(=O)C2(c3ccccc3)CCCC2)cc1	3.2	16	-1.5%[38.3 µM]	-5	12	-2.9
COC(=O)c1cc(=O)n(-c2ccccc2)c(=Nc2ccccc2)s1	1.6	-18	3.9%	-8	5	-2.7
CCOC(=O)c1c(C)[nH]c(C)c1C(=O)COC(=O)c1ccc(S(=O)(=O)N(CC)CC)cc1	0.7	-6	3.1%[38.3 µM]	-5	-9	-1.2
CCCCN1C(=N)N([C@@H](C)CN2CCC[C@H]2CN2C(N)=NC[C@H]2CC(C)C)C[C@H]1Cc1ccccc1	-1.0	0	1.8%	-55	-6	-1.2
COc1ccc(CNC(=O)CC2Sc3ccccc3NC2=O)cc1 (configuration not stated)	1.8	/	?	1	4	-3.2
CC(OC(=O)CCc1nc(=O)c2ccccc2n1C)C(=O)NCc1ccc2c(c1)OCO2 (configuration not stated)	0.2	/	-0.2%	-7	14	-6.7
CC1CCCCC1NC(=S)NC(=O)c1ccccc1Br (configuration not stated)	4.4	0	12%	-13	4	-0.2
COc1ccc(S(=O)(=O)n2oc(=O)cc2-c2ccccc2)cc1OC	0.1	?	1.4%	-2	-95*	-4.3

Next section:
mol	TRPML1 agonist	CtBP-E1A inh	PINK1 expr mod	D2 PAM	Six1-Eya2 blk	D2 ag
CCc1cccc(NC(=S)N(CCCN2CCOCC2)C(C)c2cc3cccc(OC)c3o2)c1 (configuration not stated)	1.0	-6	0.8%	-21	-7	-0.3
COc1ccc(-c2cc(C(=O)Nc3ccc(NC(C)=O)cc3)[nH]n2)c(C)c1	0.1	5	0.4%	-4	2	2.0
C[C@H]1CN([C@@H](C)CO)C(=O)c2cccc(NC(=O)Nc3ccc(C(F)(F)F)cc3)c2O[C@@H]1CN(C)Cc1ccc(Cl)c(Cl)c1	-0.5	0	11%	3	-5	5.6
O=C(O)COc1ccccc1/C=N/n1c(C2CCCCC2)n[nH]c1=S	/	-1	-0.1%	-13	1	-0.3
CCN(CC)C(=O)NCc1c(C)cc(C)cc1C	-0.6	7	2.5%	-7	10	-3.4
CCCCN(CC(=O)NC1CC1)S(=O)(=O)c1ccc(OCC)cc1	-0.1	0	-1.3%	-5	3	-3.0
Cn1c(=O)c2c(SCC(=O)NCc3ccco3)nc(-c3ccccc3Cl)nc2n(C)c1=O	0.0&0.8	3	0.5%&2.6%	-5	-8	1.9
Cc1ccccc1C(=O)c1c[nH]c(C(=O)NCc2ccco2)c1	-0.2	0	-2.1%	-19	1	-0.2
CC(=O)c1c(C)[nH]c(C(=O)NCc2ccccc2F)c1C	-0.3	-1	2.0%	-9	-1	-2.1
Cn1c(SCC(=O)N2CCOCC2)nnc1-c1cccc(NC(=O)c2ccccc2)c1	-0.4	4	-1.4%	-11	-6	-1.5
Oc1ccc2n[nH]nc2c1	1.6	9	1.1%	-17	-4	-1.9
CCC(=O)c1ccc(OCC(=O)c2ccc3c(c2)NC(=O)CO3)cc1	0.0	-5	6.2%	-9	0	-0.3

Looked up above.
Six1-Eya2 blk result of `O=C(O)COc1ccccc1/C=N/n1c(C2CCCCC2)n[nH]c1=S` reads 1
CtBP-E1A inh result of `CC(=O)c1c(C)[nH]c(C(=O)NCc2ccccc2F)c1C` reads -1
PINK1 expr mod result of `Cc1ccccc1C(=O)c1c[nH]c(C(=O)NCc2ccco2)c1` reads -2.1%
D2 ag result of `C[C@H]1CN([C@@H](C)CO)C(=O)c2cccc(NC(=O)Nc3ccc(C(F)(F)F)cc3)c2O[C@@H]1CN(C)Cc1ccc(Cl)c(Cl)c1` reads 5.6

Further structures follow.
mol	TRPML1 agonist	CtBP-E1A inh	PINK1 expr mod	D2 PAM	Six1-Eya2 blk	D2 ag
NS(=O)(=O)c1cccc(NC(=O)COC(=O)c2ccccc2SCC(=O)N2CCCC2)c1	1.0	-1	0.8%	-13	-1	-2.3
NC(=O)c1ccc2c(c1)OCCO2	-0.2	0	0.6%	-5	9	0.5
Cc1ccc2nsnc2c1S(=O)(=O)Nc1cccc2nsnc12	0.4	-2	1.5%	-9	-16	-0.7
CCCCNC(=S)Nc1ccc(C(F)(F)F)cc1	0.0	8	?	-9	2	0.3
O=C(O)c1ccc(COCC(F)(F)C(F)F)o1	0.2	3	1.2%	-6	-3	-0.4
Cc1cc(C)c(C)c(C(=O)C(=O)c2ccccc2)c1	0.5	-5	-3.0%	-10	9	-2.3
CN(C(=O)c1cccc(NC(=O)Cc2ccc(NC(=O)C3CCN(C(=O)C4CCC4)CC3)cc2)c1)C1CC1	-0.7	4	0.0%	/	1	2.2
CCOC(=O)C(=O)Nc1ccc(S(=O)(=O)Nc2nccs2)cc1	-0.4	9	-0.6%	0	-1	-1.5
O=C(Nc1ccccc1)c1cccc(C(F)(F)F)c1	0.2	0	3.6%	-20	4	2.0
CC(OC(=O)c1ccc(Cl)cc1)C(=O)NCc1ccc2c(c1)OCO2 (configuration not stated)	0.2	2	-0.9%	2	-7	-2.1
O=C(Cn1nc(-c2ccccc2)ccc1=O)N1CCOCC1	-0.4	10	0.6%	-4	1	2.6
Cc1ccc2occ(C3NC(C(=O)O)CS3)c(=O)c2c1 (configuration not stated)	-0.1	6	0.5%	-14	-9	0.8

Nothing new here: entries from further up.
mol	TRPML1 agonist	CtBP-E1A inh	PINK1 expr mod	D2 PAM	Six1-Eya2 blk	D2 ag
O=C(Cn1nc(-c2ccccc2)ccc1=O)N1CCOCC1	-0.4	10	0.6%	-4	1	2.6
Cc1ccc2occ(C3NC(C(=O)O)CS3)c(=O)c2c1 (configuration not stated)	-0.1	6	0.5%	-14	-9	0.8

Continuation.
mol	TRPML1 agonist	CtBP-E1A inh	PINK1 expr mod	D2 PAM	Six1-Eya2 blk	D2 ag
Cc1cc(C)n(-c2ccc(C(=O)N3CCN(c4ccccn4)CC3)cc2)n1	-0.2	1	-0.7%	0	6	3.2
O=C(CSc1nc2ccc(S(=O)(=O)N3CCOCC3)cc2[nH]1)N1CCOCC1	-0.6	10	-0.9%	10	1	-4.9
CCOC(=O)CSc1nnc(CNc2ccc(Cl)cc2)n1Cc1ccccc1	1.1	-5	0.9%	-6	6	-4.7
Cc1ccc2c(COC(=O)c3ccccc3F)cc(=O)oc2c1	-1.4	7	5.8%	-5	6	-5.2
COCCNC(=O)C1(C)CCN(Cc2cccc(Oc3ccccc3)c2)C1 (configuration not stated)	0.0	1	3.4%	-14	-2	-6.3
Cc1nnc(N/N=C/C(C)c2ccccc2)[nH]c1=O (configuration not stated)	-0.2	-20	2.5%	-7	-21	0.3
CCOC(=O)CN(C(=O)c1snc(C(N)=O)c1N)C(C(=O)NCCC(C)C)c1ccc(C)cc1 (configuration not stated)	-1.1	1	2.9%	-8	-2	-2.0
O=C(O)c1ccc(Cn2cnc3sc4c(c3c2=O)CCCC4)cc1	-0.5	1	-0.3%	-2	-6	3.4
O=C(NCCOc1ccccc1)[C@@H]1CCCN1C(=O)c1cccs1	-0.5	7	1.5%	-2	6	0.3
CC1=C(C(=O)N(C(C)C)C(C)C)CC(CC(=O)NCCN2CCOCC2)C(=O)N1CCC1=CCCCC1 (configuration not stated)	-0.4	8	2.4%	-7	5	-7.7
CCCN1CCC(=O)N(CCSc2ccc(NC(C)=O)cc2)CC1	0.0&-0.2	-8	0.9%	-7	-26	-3.1
O=C1/C(=C/c2ccncc2)Oc2cc(OS(=O)(=O)c3ccccc3)ccc21	1.9	/	2.6%	4	-3	4.0

Following part:
mol	TRPML1 agonist	CtBP-E1A inh	PINK1 expr mod	D2 PAM	Six1-Eya2 blk	D2 ag
COCCCNC(=O)COc1cc(C)c(Cl)c(C)c1	-0.9	7	1.4%	-17	2	-0.5
C=CCn1c(CC(=O)Nc2cccc(OC)c2)nnc1SCC(=O)NC1CCCCC1	-0.2	-12	0.7%[38.3 µM]	-14	-10	-2.3
O=C1N[C@@H](Cc2ccccc2)COC(=O)[C@H](Cc2ccc(F)cc2)CC/C=C/C[C@H]1CC(=O)N(CCO)Cc1ccccc1	0.7	-5	25%	-1	10	-7.4
CON(C)C(=O)c1ccccc1N(C)C(=O)OC(C)(C)C	0.1	1	-0.4%	-9	1	-3.2
O=C(O)c1ccccc1/C=N/NC(=O)C1CCCCC1	-0.2	3	0.8%	-8	3	-2.1
